AF4-AF9 inh – inhibitors of human MLL-AF4/AF9 interaction. inhibition, % at 10 µM. P42568. 0.47% of 350,000 active. AlphaScreen, biotin-AF4 peptide binding to FLAG-AF9. AID 651704;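 active means every replicate reaching a set inhibition limit, whatever the replicate mean, cut at about 25% in these data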;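 further: 0% = plate neutral control median and 100% = total signal loss; the record names both 10 and 1 µM as test concentration; the first replicate is given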
Target sequence (P42568 whole entry, looked up): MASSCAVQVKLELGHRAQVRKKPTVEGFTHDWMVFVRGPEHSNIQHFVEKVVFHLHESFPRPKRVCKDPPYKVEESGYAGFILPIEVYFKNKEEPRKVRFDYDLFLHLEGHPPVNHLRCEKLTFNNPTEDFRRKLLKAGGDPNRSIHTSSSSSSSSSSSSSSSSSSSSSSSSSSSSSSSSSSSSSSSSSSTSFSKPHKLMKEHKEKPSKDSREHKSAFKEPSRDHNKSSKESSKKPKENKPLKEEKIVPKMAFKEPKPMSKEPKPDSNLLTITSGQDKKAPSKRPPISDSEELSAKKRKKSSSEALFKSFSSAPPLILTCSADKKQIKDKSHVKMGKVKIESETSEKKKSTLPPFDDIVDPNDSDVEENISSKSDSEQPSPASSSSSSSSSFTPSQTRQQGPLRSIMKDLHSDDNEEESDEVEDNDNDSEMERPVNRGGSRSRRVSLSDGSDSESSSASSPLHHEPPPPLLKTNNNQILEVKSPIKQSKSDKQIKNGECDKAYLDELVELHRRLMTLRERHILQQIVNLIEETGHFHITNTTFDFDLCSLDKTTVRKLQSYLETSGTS
Active calls of the source: *.

SMILES	AF4-AF9 inh
COc1ccc2c3c(n(C)c2c1)[C@H](CO)N(CC1CCOCC1)CC31CN(C(=O)c2cccc(F)c2)C1	-9.0
CC(C)[C@@H]1COCc2cn(nn2)CC[C@H](Cc2ccccc2)C(=O)N1	-0.7
O=C(NCC[C@H]1CC[C@@H](NS(=O)(=O)c2ccc(Cl)cc2)[C@H](CO)O1)Nc1ccc(F)cc1	20
O=C([C@@H]1[C@@H](CO)[C@@H]2Cn3c(cccc3=O)[C@@H]2N1Cc1ccccc1Cl)N1CCOCC1	-2.7
CC(C)(C)[S@](=O)N1Cc2cc(C(=O)NC3CCC3)nc(-c3cccc(-c4ccccc4F)c3)c2[C@@H]1CCO	7.8
C[C@H]1CCCCO[C@H](CN(C)Cc2ccc(C(F)(F)F)cc2)[C@@H](C)CN([C@@H](C)CO)C(=O)c2cc(NC(=O)Nc3ccc4c(c3)OCO4)ccc2O1	2.4
N#C[C@@H]1[C@H](c2ccccc2-c2ccccc2F)[C@@H](CO)N1C(=O)C1CCC1	-1.8
COC(=O)C[C@@H]1CC[C@H]2[C@H](COc3ccc(NC(=O)c4cc(C)on4)cc3C(=O)N2C)O1	-1.7

Next part
SMILES	AF4-AF9 inh
C[C@H](CO)N1C[C@H](C)[C@@H](CN(C)C(=O)c2ccc3c(c2)OCO3)Oc2ncc(C3=CCCC3)cc2C1=O	0.4
C[C@@H](NC(=O)C[C@@H]1C=C[C@H](NC(=O)C2CCC2)[C@H](CO)O1)c1ccccc1	-0.8
COc1ccc(CC(N)c2csc(NC(=O)Nc3ccc(F)cc3)n2)cc1 (centres undefined)	2.3
C[C@@H]1CN([C@@H](C)CO)C(=O)Cc2cc(NC(=O)CCCCCC(=O)Nc3ccccc3N)ccc2O[C@@H]1CN(C)C(=O)Nc1ccccc1	-1.5
COC(=O)c1c2oc(c1C(=O)OC)C(=O)N[C@@H](Cc1ccccc1)Cn1cc(nn1)[C@@H](Cc1ccccc1)NC(=O)N[C@@H](CO)CC2	1.5
Cc1ccc([C@H]2C[C@H](O)[C@@H](n3cc(-c4ccc(F)cc4)nn3)CN2C(=O)c2cccs2)cc1	0.2
Cc1noc(C)c1S(=O)(=O)N(C)C[C@H]1OCCCC[C@H](C)Oc2ccc(N(C)C)cc2C(=O)N([C@@H](C)CO)C[C@@H]1C	7.9
CC(=O)NCCNc1nc(NCc2ccccc2)nc2ccsc12	0.6

Part of the list above, as labelled records.
C[C@H](CO)N1C[C@H](C)[C@@H](CN(C)C(=O)c2ccc3c(c2)OCO3)Oc2ncc(C3=CCCC3)cc2C1=O
  AF4-AF9 inh = 0.4
C[C@@H](NC(=O)C[C@@H]1C=C[C@H](NC(=O)C2CCC2)[C@H](CO)O1)c1ccccc1
  AF4-AF9 inh = -0.8
COc1ccc(CC(N)c2csc(NC(=O)Nc3ccc(F)cc3)n2)cc1 (centres undefined)
  AF4-AF9 inh = 2.3

Further records follow.
SMILES	AF4-AF9 inh
C[C@H](CO)N1C[C@H](C)[C@H](CN(C)Cc2ccncc2)OCCCC[C@H](C)Oc2ccc(NS(=O)(=O)c3ccccc3)cc2C1=O	-1.8
C[C@H](NC(=O)C[C@@H]1C[C@H]2c3cc(NC(=O)NC4CCCCC4)ccc3O[C@H]2[C@H](CO)O1)c1ccccc1	1.9
Cc1noc(C)c1NC(=O)Nc1ccc2c(c1)CC(=O)N([C@H](C)CO)C[C@H](C)[C@@H](CN(C)C(=O)Nc1ccc3c(c1)OCO3)O2	-7.1
CCNC(=O)C[C@H]1CC[C@@H]2[C@@H](COc3ccc(NC(C)=O)cc3C(=O)N2C)O1	-20
COC(=O)C[C@H]1CC[C@@H](NC(=O)c2ccccc2)[C@@H](CO)O1	-2.1
COC(=O)C[C@H]1CC[C@@H]2[C@H](COC[C@H](O)CN2C(=O)Nc2ccccc2OC)O1	-0.5
O=C(C[C@@H]1CC[C@@H](NC(=O)c2ccccc2)[C@H](CO)O1)NCc1ccncn1	-0.2
CO[C@@H]1CN(C)C(=O)c2ccc(NS(=O)(=O)c3cccc(Cl)c3)cc2OC[C@H](C)NC[C@@H]1C	-0.8

(cont.)
SMILES	AF4-AF9 inh
COc1ccc(S(=O)(=O)Nc2ccc3c(c2)CC(=O)N([C@@H](C)CO)C[C@H](C)[C@@H](CN(C)Cc2ccc(C(=O)O)cc2)O3)cc1	-2.5
COc1cccc(CNS(=O)(=O)c2ccccc2Br)c1	0.4
C[C@@H]1CCCCO[C@@H](CN(C)C(=O)C2CCCCC2)[C@@H](C)CN([C@H](C)CO)C(=O)c2cc(NC(=O)Nc3cccc4ccccc34)ccc2O1	-6.7
CN1[C@@H]2c3ccc(C4=CCCCC4)c(=O)n3C[C@H]1[C@H](CO)[C@H]2C(=O)N1CCCCC1	-0.8
COC(=O)[C@]12C[C@H](CC(=O)N3CCN(C(=O)C4CC4)CC3)C(=O)N(Cc3ccc4c(c3)OCO4)C1=C[C@H](C(C)(C)C)O[C@@H]2C	-5.5
CC(C)C#Cc1cnc2c(c1)C(=O)N([C@H](C)CO)C[C@@H](C)[C@H](CN(C)S(=O)(=O)c1cn(C)cn1)O2	-1.8
CN(C)CC(=O)Nc1ccc2c(c1)[C@H]1C[C@@H](CC(=O)NCc3ccc4c(c3)OCO4)O[C@H](CO)[C@H]1O2	1.6
C[C@@H]1CN([C@H](C)CO)S(=O)(=O)c2ccc(/C=C/c3ccccc3)cc2O[C@@H]1CN(C)Cc1ccccc1	10

Additional results.
SMILES	AF4-AF9 inh
C[C@H](CO)N1C[C@H](C)[C@@H](CN(C)C)Oc2ccc(NC(=O)Cn3cnnn3)cc2C1=O	-1.7
C[C@H](CO)N1C[C@H](C)[C@H](CN(C)C(=O)Cc2ccccc2)Oc2cc(C#CC3CCCC3)ccc2S1(=O)=O	-0.5
C[C@@H]1CN([C@H](C)CO)C(=O)c2cc(NS(=O)(=O)c3ccc(F)cc3)ccc2O[C@@H]1CN(C)Cc1ccc(C(=O)O)cc1	1.9
COc1ccc(CN(C)C[C@@H]2Oc3ccc(NC(=O)c4ccncc4)cc3C(=O)N([C@@H](C)CO)C[C@@H]2C)cc1	-0.4
O=C(C[C@H]1C=C[C@@H](NS(=O)(=O)c2ccc(F)cc2)[C@H](CO)O1)NC1CCCCC1	-0.2
CC(C)C#Cc1cnc2c(c1)C(=O)N([C@@H](C)CO)C[C@H](C)[C@@H](CN(C)C(=O)Nc1cccc(F)c1)O2	0.9
O=C(C[C@H]1CC[C@H]2[C@@H](COC[C@@H](O)CN2CCc2ccccc2)O1)NCCCN1CCOCC1	-9.3
C[C@H](CO)N1C[C@H](C)[C@H](CN(C)Cc2ccc(C(=O)Nc3ccccc3N)cc2)Oc2ccc(NC(=O)Cc3cn(C)c4ccccc34)cc2C1=O	-1.4

(further entries)
SMILES	AF4-AF9 inh
O=C(C(=O)N1CCC(CNS(=O)(=O)c2ccccc2OC(F)(F)F)CC1)c1cc2ccccc2o1	0.4
Cc1ccc(-c2ccc3c(c2)O[C@H](CN(C)C(=O)Nc2ccc(C(F)(F)F)cc2)[C@H](C)CN([C@@H](C)CO)S3(=O)=O)cc1	-0.9
C[C@@H]1CCCCO[C@@H](CN(C)Cc2ccccc2)[C@@H](C)CN([C@H](C)CO)C(=O)c2cc(NC(=O)C3CCCCC3)ccc2O1	-1.4
CCc1nc2ccc(C(=O)NCCCn3ccnc3)cn2c1N(C)Cc1ccc(N(C)C)cc1	23
C[C@@H]1CN([C@H](C)CO)C(=O)c2cc(NC(=O)Nc3ccc4c(c3)OCO4)ccc2O[C@@H]1CN(C)S(C)(=O)=O	-3.8
NC(Cc1ccc(Cl)cc1)c1csc(Nc2ccc(C(F)(F)F)cn2)n1 (centres undefined)	0.3
O=C(Nc1ccc(F)cc1)N1CC(=O)N2[C@H](CO)[C@@H](c3ccc(C#Cc4ccc(F)cc4)cc3)[C@@H]2C1	0.2
C[C@@H]1CN([C@@H](C)CO)C(=O)c2cc(NS(=O)(=O)c3cccs3)ccc2O[C@H]1CN(C)Cc1ccc(-c2ccccc2)cc1	4.1

Remaining list, next part
Compound,AF4-AF9 inh
CN(C)CC#Cc1ccc([C@@H]2[C@H](CO)N3CCCCN(S(=O)(=O)c4ccccc4F)C[C@@H]23)cc1,6.5
C[C@H](CO)N1C[C@H](C)[C@@H](CN(C)Cc2ccccc2)OCCCC[C@H](C)Oc2ccc(NC(=O)Nc3ccccc3)cc2C1=O,8.3
C[C@@H]1CN([C@H](C)CO)C(=O)c2c(c3ccccc3n2C)-c2ccccc2CO[C@@H]1CN(C)S(=O)(=O)c1ccccc1F,6.1
COC(=O)C[C@@H]1C=C[C@@H](NC(=O)Nc2ccc(C(F)(F)F)cc2)[C@@H](CO)O1,-0.2
CN(C)C(=O)C[C@H]1CC[C@H](NC(=O)NC2CCCCC2)[C@@H](CO)O1,1.7
CC(=O)N(C)C[C@H]1[C@@H](c2ccc(-c3ccc(C#N)cc3)cc2)[C@@H](CO)N1C(C)=O,-1.0
O=C(C[C@H]1C[C@H]2c3cc(NS(=O)(=O)c4ccccc4)ccc3O[C@H]2[C@@H](CO)O1)N1CCCCC1,1.4
Cc1noc(C)c1NC(=O)N1C[C@H](O)COC[C@H]2O[C@H](CC(=O)NCC3CC3)CC[C@@H]21,-1.4
COc1ccc(S(=O)(=O)Nc2cccc3c2O[C@@H](CN(C)C)[C@H](C)CN([C@@H](C)CO)C3=O)cc1,1.6
COc1cccc(-c2cnc(C(O)c3ccc(F)c(C)c3)[nH]2)c1 (centres undefined),6.2
CC(C)NC(=O)N[C@H]1CC[C@@H](CCNS(=O)(=O)c2ccc(F)cc2)O[C@H]1CO,-2.9
O=C(OCc1ccccc1)N1CCC2CC1c1cc(N3CCN(C(=S)NCCc4ccccc4)CC3)ccc12 (centres undefined),4.6
O=C(O)c1cccc(NC(=O)c2ccccc2)c1,-16
CCCC(=O)Nc1ccc2c(c1)C(=O)N(C)C[C@@H](OC)[C@@H](C)CN(C(=O)CC1CC1)[C@@H](C)CO2,2.6
CN(C)C(=O)c1ccc(-c2ccc([C@@H]3[C@@H](C#N)N(C(=O)C4CCCCC4)[C@H]3CO)cc2)cc1,2.2
CC(=O)C[C@@H](O)CC(=O)[C@@H]1OC(=O)[C@@H](C)CCCCc2ccccc21,-2.6
O=C(COC(=O)c1cc(S(=O)(=O)N2CCCC2)ccc1O)Nc1ccc(SC(F)F)cc1,-2.0
C[C@@H]1CN([C@H](C)CO)C(=O)c2c(c3ccccc3n2C)-c2ccccc2CO[C@@H]1CN(C)C(=O)Nc1cccc(F)c1,2.4
O=C(C1CCCC1)N1[C@H](CO)[C@@H]2c3ccccc3NC[C@@H]21,-2.9
CCCNC(=O)Nc1ccc2c(c1)OC[C@H](C)N(C(=O)C1CC1)C[C@H](C)[C@@H](OC)CN(C)C2=O,1.8

Further results follow.
Compound,AF4-AF9 inh
O=C(C[C@@H]1CC[C@H]2[C@@H](COC[C@H](O)CN2CC2CCOCC2)O1)NCc1ccc(Cl)cc1,-0.2
COc1ccccc1-c1ccc2c(c1)O[C@@H](CN(C)S(=O)(=O)c1ccccc1)[C@H](C)CN([C@H](C)CO)S2(=O)=O,0.3
C[C@@H]1CCCCO[C@@H](CN(C)S(C)(=O)=O)[C@@H](C)CN([C@H](C)CO)C(=O)c2cc(NC(=O)c3ccncc3)ccc2O1,-19
O=C(N[C@H]1CC[C@H](CCNC(=O)C2CCC2)O[C@H]1CO)c1ccccn1,-2.1
CCC(=O)N1[C@@H]2Cn3c(ccc(C4=CCCC4)c3=O)[C@H]1[C@@H](C(=O)N[C@H](C)c1ccccc1)[C@@H]2CO,0.1
COc1ccc(CN(C)C[C@@H]2Oc3ccc(NC(=O)Nc4c(C)noc4C)cc3CC(=O)N([C@H](C)CO)C[C@@H]2C)cc1,-3.5
Cc1ccc(S(=O)(=O)N(C)C[C@H]2OCCCC[C@H](C)Oc3ccc(NS(=O)(=O)c4ccccc4)cc3C(=O)N([C@H](C)CO)C[C@H]2C)cc1,-2.8
OC[C@H]1[C@H](c2ccc(C#Cc3ccccc3F)cc2)[C@@H]2CN(Cc3cncnc3)CCCCN12,-2.7
COCC(=O)N1[C@H](CO)[C@H](c2ccccc2C2=CCCC2)[C@@H]1C#N,-6.1
C[C@@H](NS(=O)(=O)c1c(F)cccc1F)c1ccccc1,-4.1
C[C@H](CO)N1C[C@H](C)[C@H](CN(C)C(=O)Nc2ccccc2)OCc2ccccc2-c2c(n(C)c3ccccc23)C1=O,1.6
CC(=O)N1[C@@H](CO)[C@@H](c2ccc(C3=CCCC3)cc2)C12CN(C(=O)NC(C)C)C2,-1.8
CCS(=O)(=O)Nc1ccc2c(c1)C(=O)N(C)[C@@H]1CC[C@H](CC(=O)Nc3ccccc3)O[C@@H]1CO2,1.4
COc1cccc(-c2ccc([C@@H]3[C@@H](CO)N4CCCCN(CC5CC5)C[C@H]34)cc2)c1,5.0
O=C(NC1CCC1)[C@H]1[C@H](CO)[C@H]2Cn3c(ccc(-c4ccncc4)c3=O)[C@@H]1N2CC1CC1,-0.1
C[C@@H]1CN([C@H](C)CO)C(=O)c2cccc(NC(=O)CCCCCC(=O)Nc3ccccc3N)c2O[C@H]1CN(C)Cc1ccc(C(F)(F)F)cc1,1.8
Cc1ccc(-c2ccc([C@@H]3[C@H](CO)N4C(=O)CN(C(=O)NC(C)C)C[C@@H]34)cc2)cc1,-0.3
Cc1noc(C)c1NC(=O)N(C)C[C@@H]1Oc2cc(C#CCN(C)C)ccc2S(=O)(=O)N([C@H](C)CO)C[C@H]1C,14
CCCCNC(=O)c1nc(C2CCN(S(=O)(=O)c3cccc(C(F)(F)F)c3)CC2)oc1-c1ccccc1,-8.2
C[C@@H]1CN([C@@H](C)CO)C(=O)Cc2cc(NS(=O)(=O)c3cccs3)ccc2O[C@H]1CN(C)Cc1ccccc1,1.8
CC(=O)c1ccc(NC(=O)C(C)OC(=O)c2ccc(NS(=O)(=O)c3ccc4[nH]c(=O)[nH]c4c3)cc2)cc1 (centres undefined),-0.8
C[C@H](CO)N1C[C@H](C)[C@H](CN(C)C)OCCCC[C@H](C)Oc2ccc(NC(=O)Nc3ccc(C(F)(F)F)cc3)cc2C1=O,3.8

The list is partial. The share of hits here may be higher or lower than overall.
